Screening results deposited in PubChem by Broad Institute.
DUX4 txn inh: DUX4-mediated transcription inhibition. activity change, negative = inhibition, % (concentration not given with the values). 293T-iDUX4 ZSCAN4-Gaussia luciferase reporter, 24 h; hits give low values. actives 0.8% (n = 37,000). AID 1224904;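 active means -10% or lower and over 25 points stronger than a control reporter; inconclusive means -10% or lower with a smaller gap; inactive means above -10%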;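 further: 0% = median of neutral control wells and -100% = median of positive control wells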
DUX4 txn inh difference: second read-out of DUX4 txn inh, no call of its own (marks repeat the call); Gaussia minus Italica difference, %; measured here: selective DUX4 reporter inhibition;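 worked out from the two reporters; negative = selective loss of the DUX4 reporter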
DUX4 txn inh control: second read-out of DUX4 txn inh, no call of its own (marks repeat the call); activity change, negative = inhibition, %; measured here: Italica tet-on control reporter;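 0 = neutral control and -100 = positive control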
The depositor's hits bear a star; u = inconclusive; x = not tested or not shown. This is a subset; count on the stated rates, not on these rows.

DUX4 txn inh	DUX4 txn inh difference	DUX4 txn inh control	structure
-3	-4	1.4	O=C(C[C@H]1C[C@H]2c3cc(NC(=O)C4CCOCC4)ccc3O[C@H]2[C@H](CO)O1)NCc1cccnc1
u	x	x	Cc1ccc(-c2ccc([C@@H]3[C@@H](CO)N4CCCCN(C(=O)Nc5ccccc5)C[C@@H]34)cc2)cc1
5	2	3.4	O=C(C[C@@H]1C[C@H]2c3cc(NS(=O)(=O)c4ccc(F)cc4)ccc3O[C@H]2[C@@H](CO)O1)NCc1cccnc1
14	15	-0.6	COc1ccc(NC(=O)N(C)C[C@@H]2OCc3ccccc3-c3ccccc3C(=O)N([C@@H](C)CO)C[C@H]2C)cc1
2	-2	3.9	C[C@@H]1CN([C@H](C)CO)C(=O)c2cccc(NC(=O)NC3CCCCC3)c2O[C@@H]1CN(C)Cc1ccc(C(F)(F)F)cc1
3	3	0.7	CNC(=O)C[C@@H]1CC[C@H]2[C@@H](COC[C@@H](O)CN2C(=O)c2ccc3c(c2)OCO3)O1
2	6	-3.9	C[C@@H]1CCCCO[C@H](CN(C)C(=O)Nc2ccc3c(c2)OCO3)[C@@H](C)CN([C@H](C)CO)C(=O)c2cc(NC(=O)C3CCCCC3)ccc2O1
11	12	-1.7	O=C(C[C@H]1C[C@H]2c3cc(NS(=O)(=O)c4ccccc4)ccc3O[C@H]2[C@H](CO)O1)NCC(F)(F)F
0	1	-1.8	C[C@@H]1CCCCO[C@H](CN(C)C(=O)c2ccncc2)[C@@H](C)CN([C@H](C)CO)C(=O)c2cc(NC(=O)CCC(F)(F)F)ccc2O1
1	5	-4.6	COC(=O)C[C@H]1CC[C@H]2[C@@H](COc3ccc(NC(=O)NCc4ccccc4)cc3C(=O)N2C)O1
-2	-4	1.2	C[C@@H]1CN([C@H](C)CO)C(=O)c2cc(N(C)C)ccc2O[C@@H]1CN(C)CC1CCCCC1
0	5	-5.2	CCc1nc(N2[C@H](C#N)[C@H](c3ccccc3-c3ccccc3F)[C@@H]2CO)sc1C
0	-7	7.2	CNC(=O)C[C@H]1CC[C@H]2[C@@H](COc3ccc(NC(=O)Nc4ccccc4OC)cc3C(=O)N2C)O1
4	2	1.9	COc1ccc(NC(=O)N(C)C[C@H]2OCc3cnnn3CCCC(=O)N([C@H](C)CO)C[C@H]2C)cc1
2	1	1.9	COc1ccc(CN(C)C[C@@H]2OCCCC[C@@H](C)Oc3ccc(NC(=O)C4CCCCC4)cc3C(=O)N([C@H](C)CO)C[C@@H]2C)cc1
-1	-5	3.4	C[C@H](CO)N1C[C@H](C)[C@@H](CN(C)S(=O)(=O)c2ccccc2)Oc2ncc(-c3ccncc3)cc2C1=O
0	2	-1.8	Cc1noc(C)c1NC(=O)N(C)C[C@H]1Oc2c(NS(=O)(=O)c3ccc(Cl)cc3)cccc2C(=O)N([C@H](C)CO)C[C@H]1C
-5	-2	-2.5	Cc1cc(C(=O)Nc2ccc3c(c2)C(=O)N(C)[C@H]2CC[C@@H](CC(=O)NCc4ccc(-c5ccccc5)cc4)O[C@H]2CO3)no1
2	0	2.3	Cc1noc(C)c1S(=O)(=O)N(C)C[C@@H]1OCCCC[C@@H](C)Oc2ccc(N(C)C)cc2C(=O)N([C@@H](C)CO)C[C@@H]1C
1	2	-1.8	N#C[C@H]1[C@H](c2ccc(C3=CCCC3)cc2)[C@H](CO)N1C(=O)C1CC1
u	x	x	COc1ccc2c3c(n(C)c2c1)[C@H](CO)N(Cc1ccccc1Cl)CC31CN(C(=O)CN(C)C)C1
1	-1	1.3	CCC(=O)N(C)C[C@@H]1[C@H](c2ccc(C3=CCCCC3)cc2)[C@H](CO)N1C(=O)CC
1	6	-4.6	O=C(Nc1cc(F)ccc1F)N1C[C@@H]2[C@H](c3ccccc31)[C@H](CO)N2Cc1cccnc1
-7	30	-38	COc1ccc(-c2ccc3c(c2)[C@@H]2[C@@H](CCN2S(=O)(=O)c2ccccc2F)[C@H](CO)N3C)cc1
7	23	-16	COc1ccc2c3c([nH]c2c1)[C@H](CO)N(Cc1ccncc1)CC31CCN(C(=O)CN(C)C)CC1
2	2	0.0	CC(=O)N1[C@@H]2c3ccc(/C=C/c4ccccc4)c(=O)n3C[C@H]1[C@H](CO)[C@H]2C(=O)NCC1CC1
-6	-7	0.8	COc1ccc2c3c(n(C)c2c1)[C@@H](CO)NCC31CCN(C(=O)Nc2ccc(F)cc2F)CC1
14	22	-8.5	CCS(=O)(=O)N1CCCCN2[C@H](CO)[C@H](c3ccc(C#Cc4ccccn4)cc3)[C@@H]2C1
5	19	-13	O=C(Nc1ccc2c(c1)[C@H]1C[C@@H](CC(=O)N3CCc4ccccc4C3)O[C@@H](CO)[C@H]1O2)c1ccc2c(c1)OCO2
-3	-4	1.4	O=S(=O)(N[C@H]1CC[C@H](CCn2cc(Cc3ccccc3)nn2)O[C@H]1CO)c1ccccc1F
5	2	3.3	CCCNC(=O)C[C@H]1C[C@H]2c3cc(NC(=O)COC)ccc3O[C@H]2[C@@H](CO)O1
u	x	x	COc1ccc2c3c(n(C)c2c1)[C@H](CO)N(C(=O)c1cccc(F)c1)CC31CN(C(=O)c2cccc(F)c2)C1
-5	-19	14	CCC(=O)N1CC[C@@H]2[C@H]1c1cc(C#Cc3ccc(F)cc3)ccc1N[C@@H]2CO
-4	0	-4.5	CCCNC(=O)N1C[C@H]2[C@@H](c3ccccc31)[C@H](CO)N2C(=O)c1ccccc1
0	-2	1.5	O=C(O)C[C@H]1C[C@@H]2c3cc(NC(=O)c4ccc5c(c4)OCO5)ccc3O[C@@H]2[C@@H](CO)O1
u	x	x	CCCNC(=O)[C@@H]1[C@@H](CO)[C@@H]2Cn3c(ccc(C4=CCCCC4)c3=O)[C@@H]2N1Cc1ccccc1F

Filtered by structure, the entries above containing a Cl atom.
DUX4 txn inh	DUX4 txn inh difference	DUX4 txn inh control	structure
0	2	-1.8	Cc1noc(C)c1NC(=O)N(C)C[C@H]1Oc2c(NS(=O)(=O)c3ccc(Cl)cc3)cccc2C(=O)N([C@H](C)CO)C[C@H]1C
u	x	x	COc1ccc2c3c(n(C)c2c1)[C@H](CO)N(Cc1ccccc1Cl)CC31CN(C(=O)CN(C)C)C1

Compound profiles, as listed above. Order of screens: DUX4 txn inh, DUX4 txn inh difference, DUX4 txn inh control
Listed for COc1ccc2c3c([nH]c2c1)[C@H](CO)N(Cc1ccncc1)CC31CCN(C(=O)CN(C)C)CC1 : 7, 23, -16
Listed for CCCNC(=O)[C@@H]1[C@@H](CO)[C@@H]2Cn3c(ccc(C4=CCCCC4)c3=O)[C@@H]2N1Cc1ccccc1F : u, x, x
Listed for O=C(O)C[C@H]1C[C@@H]2c3cc(NC(=O)c4ccc5c(c4)OCO5)ccc3O[C@@H]2[C@@H](CO)O1 : 0, -2, 1.5
Listed for CC(=O)N1[C@@H]2c3ccc(/C=C/c4ccccc4)c(=O)n3C[C@H]1[C@H](CO)[C@H]2C(=O)NCC1CC1 : 2, 2, 0.0
Listed for CCS(=O)(=O)N1CCCCN2[C@H](CO)[C@H](c3ccc(C#Cc4ccccn4)cc3)[C@@H]2C1 : 14, 22, -8.5

(more compounds)
DUX4 txn inh	DUX4 txn inh difference	DUX4 txn inh control	structure
0	-1	1.1	CC(C)NC(=O)N1C[C@H]2[C@@H](c3ccccc31)[C@@H](CO)N2C(=O)NC(C)C
19	20	-0.5	CC(C)NC(=O)N1CCCCN2[C@H](CO)[C@@H](c3ccc(C#C[C@H](C)O)cc3)[C@H]2C1
2	0	2.5	C[C@H](CO)N1C[C@H](C)[C@@H](CN(C)Cc2ccccc2)Oc2c(NC(=O)Cc3cn(C)c4ccccc34)cccc2C1=O
1	3	-1.9	CN1C(=O)c2cc(NC(=O)C3CCCC3)ccc2OC[C@@H]2O[C@H](CC(=O)NCC(F)(F)F)CC[C@H]21
1	6	-4.6	COc1ccc2c3c(n(C)c2c1)[C@@H](CO)N(C)CC31CN(C(=O)c2cccnc2)C1
6	2	4.5	C[C@H]1CN([C@@H](C)CO)C(=O)c2cc(C3=CCCC3)cnc2O[C@@H]1CN(C)C(=O)c1ccc2c(c1)OCO2
3	-2	5.2	COc1ccc2c3c([nH]c2c1)[C@H](CO)N(Cc1ccccc1)CC31CN(C(=O)NC(C)C)C1
3	2	1.0	COc1ccccc1-c1ccc([C@H]2[C@@H](C#N)N(C(=O)C3CCC3)[C@@H]2CO)cc1
-7	-5	-2.3	CCC(=O)N1[C@H](CO)[C@@H](c2ccccc2)C12CN(Cc1cc(F)ccc1F)C2
u	x	x	C[C@@H]1CN([C@H](C)CO)C(=O)CCCn2nncc2CO[C@@H]1CN(C)Cc1ccccc1C(F)(F)F
6	4	2.2	O=C(C[C@@H]1C=C[C@H](NC(=O)c2ccc3c(c2)OCO3)[C@H](CO)O1)NC1Cc2ccccc2C1
2	5	-3.1	C[C@@H]1CN([C@@H](C)CO)C(=O)CCCn2nncc2CO[C@@H]1CN(C)CC1CCCCC1
-2	-3	0.7	O=C(Cc1cccnc1)N1CC2(C1)[C@@H](c1ccccc1)[C@@H](CO)N2C(=O)C1CCCCC1
-1	-2	0.8	O=C(c1ccccn1)N1CC2(C1)[C@H](c1ccccc1)[C@@H](CO)N2Cc1ccccc1
u	x	x	COc1cccc(S(=O)(=O)N(C)C[C@@H]2OCc3ccccc3-c3c(n(C)c4ccccc34)C(=O)N([C@H](C)CO)C[C@H]2C)c1
-2	1	-3.0	COc1cccc(CN2[C@@H](CO)[C@H](c3ccccc3)C23CN(C(=O)C2CC2)C3)c1
-1	1	-1.9	CCCC(=O)N1C[C@H]2[C@@H](c3ccccc31)[C@H](CO)N2C(=O)Nc1ccc(F)cc1
5	3	2.1	O=C(NCCc1ccccc1)[C@H]1N[C@H]2c3ccc(-c4ccccc4)c(=O)n3C[C@H]2[C@@H]1CO
-2	-2	0.2	Cc1noc(C)c1S(=O)(=O)Nc1ccc2c(c1)C(=O)N([C@@H](C)CO)C[C@@H](C)[C@@H](CN(C)C(=O)Nc1ccc3c(c1)OCO3)OCCCC[C@@H](C)O2
-2	-1	-0.3	CN1C(=O)c2cc(NC(=O)Nc3ccccc3Cl)ccc2OC[C@H]2O[C@@H](CC(=O)O)CC[C@H]21
6	6	-0.5	COCC(=O)NC[C@H]1[C@@H](c2ccc(C3=CCCC3)cc2)[C@@H](CO)N1C(=O)C1CC1
u	x	x	COc1ccccc1NC(=O)N[C@@H]1CC[C@@H](CC(=O)N2CCC(Cc3ccccc3)CC2)O[C@@H]1CO
-1	-5	4.5	CCCNC(=O)N1CC2(C1)[C@@H](c1ccccc1)[C@@H](CO)N2Cc1cccc(F)c1
3	6	-3.6	C[C@@H]1CN([C@@H](C)CO)C(=O)c2cc(NC(=O)Nc3ccccc3)ccc2O[C@@H]1CN(C)Cc1ccccc1
9	3	6.1	COCC(=O)Nc1ccc2c(c1)[C@@H]1C[C@H](CC(=O)N[C@@H](C)c3ccccc3)O[C@@H](CO)[C@@H]1O2
-4	-1	-2.5	CNC[C@H]1Oc2ccc(NC(=O)c3ccncc3)cc2CC(=O)N([C@H](C)CO)C[C@@H]1C
2	-1	2.3	C[C@H](CO)N1C[C@H](C)[C@H](CN(C)S(=O)(=O)c2cccs2)Oc2ccc(N(C)C)cc2C1=O
8	11	-2.5	O=C(C[C@@H]1CC[C@H]2[C@@H](COC[C@H](O)CN2C(=O)c2ccc3c(c2)OCO3)O1)NCCN1CCCCC1
-5	-10	4.7	C[C@H](CO)N1C[C@H](C)[C@@H](CN(C)C(=O)C2CC2)OCc2ccccc2-c2ccccc2C1=O
-7	-7	0.3	CCS(=O)(=O)Nc1ccc2c(c1)C(=O)N(C)C[C@@H](OC)[C@H](C)CN(CC1CCCCC1)[C@H](C)CO2
0	0	0.2	COCC(=O)Nc1ccc2c(c1)[C@@H]1C[C@@H](CC(=O)N3CCc4ccccc4C3)O[C@@H](CO)[C@@H]1O2
3	3	-0.1	COc1cccc(CNC(=O)C[C@H]2CC[C@H](NC(C)=O)[C@H](CO)O2)c1
2	1	1.4	Cc1noc(C)c1NC(=O)N(C)C[C@@H]1OCCCC[C@@H](C)Oc2ccc(NS(=O)(=O)c3cn(C)cn3)cc2C(=O)N([C@@H](C)CO)C[C@H]1C
1	1	-0.5	COc1ccc(S(=O)(=O)N2CCCCN3[C@H](CO)[C@@H](c4ccc(C5=CCCC5)cc4)[C@@H]3C2)cc1
6	6	0.8	CO[C@@H]1CC[C@H]2CCN(C)C(=O)[C@@H](C)CN(C)C(=O)c3cc(C#N)ccc3OC[C@@H]1O2
-7	-9	2.0	CC=Cc1ccc2n(c1=O)C[C@@H]1N[C@H]2[C@H](C(=O)NCc2ccc3c(c2)OCO3)[C@H]1CO (mixture of isomers)
0	1	-0.8	COCC(=O)N1C[C@H](C)[C@@H](OC)CN(C)C(=O)c2ccc(NC(=O)c3cc(C)on3)cc2OC[C@H]1C
13	12	1.0	CN1c2ccc(-c3ccc(F)cc3)cc2[C@@H]2[C@@H](CCN2C(=O)Cc2cccnc2)[C@@H]1CO
2	-2	4.6	C[C@@H]1CN([C@@H](C)CO)S(=O)(=O)c2ccc(C3=CCCCC3)cc2O[C@@H]1CN(C)S(=O)(=O)c1cn(C)cn1
4	3	1.2	O=C(C[C@H]1CC[C@H](NS(=O)(=O)c2ccc(F)cc2)[C@@H](CO)O1)NC1CCCCC1
u	x	x	COc1ccccc1NC(=O)N1C[C@H](O)COC[C@@H]2O[C@@H](CC(=O)N3CCC(Cc4ccccc4)CC3)CC[C@H]21
u	x	x	C[C@H]1CN([C@@H](C)CO)C(=O)c2c(c3ccccc3n2C)-c2ccccc2CO[C@H]1CN(C)C(=O)[C@@H](Cc1ccccc1)N(C)C
